AmpC nodet inh: AmpC beta-lactamase inhibition, detergent-free assay | P00811 | AmpC nitrocefin hydrolysis, absorbance 480 nm, no detergent; potencies from a single point are estimates | Potency, µM (series often up to 28.7 µM), for inactives: at the highest dose activity change, negative = inhibition | 1.8% of 71,000 active | AID 585; active = falling curve, for most hits resting on a single point; inconclusive = weak or doubtful change; inactive = flat or rising curve; also: % of control where 0% means no effect; about half of the hits show no inhibition at the top dose; a quarter of the inactives give rising signals
Target sequence (P00811 whole entry, looked up): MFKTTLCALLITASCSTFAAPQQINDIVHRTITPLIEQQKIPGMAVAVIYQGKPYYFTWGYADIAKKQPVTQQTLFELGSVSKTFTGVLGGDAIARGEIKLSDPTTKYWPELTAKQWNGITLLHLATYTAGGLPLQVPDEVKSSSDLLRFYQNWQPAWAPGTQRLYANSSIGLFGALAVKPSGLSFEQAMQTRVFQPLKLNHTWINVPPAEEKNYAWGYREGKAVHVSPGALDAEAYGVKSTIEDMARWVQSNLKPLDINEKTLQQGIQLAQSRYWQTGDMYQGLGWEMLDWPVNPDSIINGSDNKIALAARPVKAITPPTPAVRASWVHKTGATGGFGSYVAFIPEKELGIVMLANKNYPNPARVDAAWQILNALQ
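Enzyme, pH 7.0 phosphate. Compound titrations were pre-incubated with AmpC for 15 min at room temperature before nitrocefin (stock 800 uM) addition; product formation was recorded at 480 nm every 20 s for 4 min.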
* = called active by the depositor; ? = inconclusive; [ ] = dose if it differs, or a comment. Potency is read from the fitted curve at half-maximal effect. Some of the compounds tested; rates above refer to the full screens.

SMILES | AmpC nodet inh
Clc1ccc(C(c2nnnn2C2CCCCC2)N(Cc2cccnc2)Cc2ccco2)cc1 (stereo not drawn) | 29%
CCOC(=O)NC(Nc1ccc(S(N)(=O)=O)cc1)(C(=O)OCC)C(F)(F)F (stereo not drawn) | 4%
c1ccc2c(c1)nc1n2C2(N3CCOCC3)CCCC2C1N1CCOCC1 (stereo not drawn) | -1%
C=CCn1c(SCC(N)=O)nnc1-c1cc(Br)ccc1O | 13%
COc1cc(-n2cnnn2)ccc1S(=O)(=O)N1CCOCC1 | -5%
CCOC(=O)c1[nH]cnc1C(=O)NC1CCCCC1 | -1%
FC(F)(F)c1ccccc1-c1ccc2ncnc(NCc3cccnc3)c2c1 | 103%
O=C(CC1SCCNC1=O)Nc1cc(Cl)cc(Cl)c1 (stereo not drawn) | 3%
COc1ccccc1-c1noc(CCC(=O)Nc2ccccc2Cl)n1 | 22%
COc1ccc(CC(=O)Nc2ccc(-c3nnc(-c4ccccc4)o3)cc2)cc1OC | 48%
O=S(=O)(Nc1ccc2c(c1)oc1ccccc12)N1CCCC1 | 0%
Cn1c(CSc2ccccc2)c(C#N)c2ccccc21 | -4%

Molecules above that have a furan ring, fused or not (2):
SMILES | AmpC nodet inh
Clc1ccc(C(c2nnnn2C2CCCCC2)N(Cc2cccnc2)Cc2ccco2)cc1 (stereo not drawn) | 29%
O=S(=O)(Nc1ccc2c(c1)oc1ccccc12)N1CCCC1 | 0%

Other structures.
SMILES | AmpC nodet inh
COc1ccccc1OCC(=O)NCC1CCCCC1 | 44%
CCN(CC)S(=O)(=O)c1cc(C(=O)Nc2ccc(Cl)cn2)ccc1C | 14%
CSc1nc(O)c(C2OC(=O)c3ccccc32)c(=O)[nH]1 (stereo not drawn) | -11%
CCC(=O)c1cc2c(C)cc(=O)oc2c(C)c1O | 4%
Cc1ccc2nc(NC(=O)CN(C)S(=O)(=O)c3cccc4nsnc34)sc2c1 | ?
Cc1nnc(Nc2ccc(C(=O)NCCO)cc2)c2ccccc12 | 0%
CCC(=NCCCN(C)C)c1c(O)n(-c2ccc(OC)cc2)c(=O)[nH]c1=O | -12%
CCC(C)(NC(=O)c1ccccn1)C(=O)NC1CCCCC1 (stereo not drawn) | 2%
CCS(=O)(=O)c1ccc(O)c(NC(=O)Nc2ccccc2)c1 | -16%
COc1ccc(N(CC(=O)Nc2ccc3c(c2)OCO3)S(C)(=O)=O)c(OC)c1 | 14%
COC(=O)NC1CSCC1OC(=O)CN1C(=O)c2ccccc2C1=O (stereo not drawn) | 1%
C[C@@H](O)[C@H]1C(=O)N2C(C(=O)O)=C(S[C@@H]3CN[C@H](C(=O)N(C)C)C3)[C@H](C)[C@H]12 | 27%[12.8 µM]
c1ccc(SCCSc2ccccc2)cc1 | -13%
O=C(O)c1ccc(CSc2ncn[nH]2)cc1 | 2%
O=C(Cn1cnc2c(nnn2Cc2ccc(Cl)cc2)c1=O)OCc1ccccc1 | -2%
CCOc1c(C(N)=O)c(-c2ccccc2)c2c(=O)[nH]c3ccccc3n12 | 13µM*
O=C(O)C1C2C=CC(O2)C1C(=O)Nc1ccc(S(=O)(=O)N2CCc3ccccc32)cc1 (stereo not drawn) | 3%
CC(C)OC(=O)c1cn(-c2ccccc2)nc1-c1ccco1 | 14%
COC(=O)Cn1c2c(c3cc(C)ccc31)CCCC2 | -11%
COC(=O)c1c(N)c2ccccc2[nH]c1=O | -6%
Fc1ccc(CN2CCCCCCC2)c(F)c1 | -4%
O=c1[nH]c2ccc(Cl)cc2c(-c2ccccc2)c1CN1CCOCC1 | 28%
Cc1cc(C)n(-c2ccc(OCC(=O)O)nn2)n1 | -8%
COc1ccc(OCCOC(=O)c2cccs2)cc1 | -14%
COC(=O)c1sccc1NC(=O)c1cc(C)on1 | 7%
COC(=O)C1=C(NC(=O)c2cccc(C)c2)CCS1 | 0%
COc1ccc(OCC(=O)c2c(O)c3ccccc3oc2=O)cc1 | 0%
CCOC(=O)C1CCN(C(=O)CSC2=NCCS2)CC1 | 1%
COc1ccc(-c2noc(CCC(=O)NC3CCCCC3)n2)cc1OC | 32%
Nc1ccc(Cl)cc1N | -23%
CCN1CCCC1CNC(=O)CSCc1nc(-c2ccccc2C)oc1C (stereo not drawn) | 38%
CCOc1cc2[nH]c(=S)n(CCOC)c(=O)c2cc1OCC | 11%
Cc1cccc(CN2CCC(CNC(=O)C3CCCN(S(=O)(=O)c4cnc[nH]4)C3)CC2)c1 (stereo not drawn) | 3.2µM*[single pt active]
COc1ccc(-c2cc(C(=O)Nc3cc(OC)c(OC)c(OC)c3)no2)cc1OC | 60%
C1CN(c2nc3nonc3nc2N2CCOCC2)CCO1 | -15%
Cc1cc(NC(=O)CSc2nc(-c3ccccc3)cs2)no1 | -13%
COc1ccccc1C1/C(=C(/O)c2ccccc2)C(=O)C(=O)N1CC(C)C (stereo not drawn) | -1%
Cc1ccc(C2C(S(C)(=O)=O)=C(O)C(=O)N2c2ccccc2)cc1 (stereo not drawn) (tested in a mixture with another compound) | -8%
O=C(O)c1ccccc1OCCOCCOc1ccccc1C(=O)O | 8%
CCn1c(CNC(=O)c2cccs2)nnc1SCC(=O)NCCc1ccccc1 | 26%
CCC(=O)N1C(C(=O)N2CCCC2)CSC1c1ccc(OC)cc1 (stereo not drawn) | 21%
O=c1cc(CN2CCN(c3ccccc3)CC2)c2cc(O)c(-c3ccccc3)cc2o1 | ?
CC12CC(NC(=O)N1Cc1ccccc1)c1ccccc1O2 (stereo not drawn) | 6%
c1ccc2c(c1)nc(N1CCOCC1)c1c3ccccc3[nH]c21 | -6%
Cc1ccc(OCC(=O)NCc2ccco2)cc1C | 14%
Cc1nc(Nc2ccc3c(c2)OCCO3)c2nnn(Cc3ccccc3Cl)c2n1 | 2%
c1ccc([C@H]2CNCc3ccccc32)cc1 | 2%
CCN(CC)CCNc1nc2c(c(=O)[nH]c(=O)n2C)n1CC(O)COc1ccc(Cl)cc1Cl (stereo not drawn) | 29%

A second format for 2 compounds above.
canonical_smiles,AmpC nodet inh
CC12CC(NC(=O)N1Cc1ccccc1)c1ccccc1O2 (stereo not drawn),6%
c1ccc2c(c1)nc(N1CCOCC1)c1c3ccccc3[nH]c21,-6%

Later entries
SMILES | AmpC nodet inh
Cc1c(CN2CCC(C)CC2)c(=O)n(-c2ccccc2)n1C | -18%
CC(=O)NC1CC2CCC(C1)N2Cc1ccc(C)cc1 (stereo not drawn) | 3%
COc1ccc(Nc2nc(CC(C)=O)ns2)cc1OC | 12%
CCOC(=O)C1OC1(C)c1ccccc1 (stereo not drawn) | -7%
CCOC(=O)N1CCC(N2Cc3cccc(C(=O)NCC4CCN(CC(C)C)C4)c3C2=O)CC1 (stereo not drawn) | 71%
Cc1nc(C)c(-c2csc(Nc3cccnc3)n2)s1 | 41%
O=C(Nc1ccccc1Cl)c1ccc2c(c1)N(Cc1ccc(F)cc1)C(=O)CS2=O (stereo not drawn) | 33%
CCNC(=O)NC(=O)COC(=O)c1ccccc1SCC(=O)NC(=O)NCC | -7%
COc1ccccc1C(=O)N1CCN(C(=O)COc2cccc(C)c2)CC1 | 41%
CCCOC(=O)Nc1ccccc1C(N)=O | -6%
COc1ccc(C(=O)N2CCC3(CC2)CN(c2ccccc2)C3)cc1 | 92%
COc1cc2c(C#N)c(N3CCOCC3)nc(N)c2c(N)n1 | -16%
CCCS(=O)(=O)C(=C1NCCO1)S(=O)(=O)CCC | -7%
Cc1nnc(C)n1/N=C/C=C/c1ccccc1 | 7%
Cc1ccc(-c2nnc(CSc3nncn3N)o2)cc1 | 7%
CC1CN(C(=O)c2ccccc2)OC(c2ccc3c(c2)OCO3)O1 (stereo not drawn) | 10%
COc1ccc(C2(C(=O)O)CCCC2)cc1 | -10%
CC1CCc2nn(CC(=O)NCc3ccc(F)cc3)cc2C1 (stereo not drawn) | 26%
CCC(=NCc1ccco1)c1c(O)n(C2CCCCC2)c(=O)[nH]c1=O | -1%
CCOc1ccccc1N/C=C/C(=O)C(C)(C)C | 8%
CCN(CC)CCn1c(OC)cc(=O)[nH]c1=O | -4%
O=P(OCC(F)(F)C(F)F)(N1CCOCC1)N1CCOCC1 | -6%
Cc1ccc(C2C(C#N)=C(N)SC(N)=C2C#N)c(C)c1 | -14%
O=c1c2cn[nH]c2nc(SCc2ccc3c(c2)OCCO3)n1-c1ccccc1 | 23%
Cc1nc2cc(NC(=O)N3CCN(c4ccccn4)CC3)ccc2o1 | 4%
CCOc1cc(C)c(Cl)cc1S(=O)(=O)NCc1ccc2c(c1)OCO2 | 22%
CCN(CC)C(=O)C1CCCN(C/C(C)=C/c2ccccc2)C1 (stereo not drawn) | 7%
Cc1nnc(SCC(=O)Nc2cc(C(F)(F)F)ccc2N2CCOCC2)o1 | 34%
CCN(CC)S(=O)(=O)c1ccc2[nH]cc(C(=O)NCCC3=CCCCC3)c(=O)c2c1 | -6%
Cc1ccc(-c2csc3nc(C)n(-n4cccc4)c(=O)c23)o1 | -6%
O=S(=O)(NCCC1=CCCCC1)c1cccc2nsnc12 | -7%
CC1(C)CC(=O)C2=C(C1)NC(SCC(=O)Nc1ccccc1)=C(C#N)C21CCCCC1 | ?
Cc1ccc2[nH]c(=O)c(-c3noc(C(C)C)n3)cc2c1 | 6%
CC(C)C(=O)Nc1ccc(NC(=O)c2cccs2)cn1 | -11%
Cc1cc(N2CCN(c3ccccn3)CC2)n2c(nc3ccccc32)c1C#N | 2%
CCC(=O)N1CCN(c2ccc(NC(=O)c3ccco3)cc2)CC1 | -3%
Cc1cc(Cl)c(S(=O)(=O)NCC2CCCO2)cc1OCC(N)=O (stereo not drawn) | 2%
COC(=O)Nc1ccc(OCc2ccccc2)cc1 | -8%
COC(=O)n1c(=O)oc2cc(S(=O)(=O)N3CCCCC3)ccc21 | 0%
Cc1nc(NC(C)C)c2oc3ccccc3c2n1 | 65%
CCc1cccc2c(-c3ccccc3)c3c(nc12)OCC3 | 39%
Cc1ccc(C(=O)N(CC(=O)NC2CCCC2)Cc2cccs2)s1 | 6%
CCc1ccccc1NC(=O)c1cc(-c2cccc(O)c2)on1 | ?
CSc1ccccc1NC(=O)COc1ccc(S(=O)(=O)N2CCCC2)cc1 | 13%
CCSc1nnc2c(n1)OC=Nc1ccc(Br)cc1-2 | -8%
CCC(C)N(C(=O)c1csnn1)C(C(=O)NCc1ccc(F)cc1)c1ccco1 (stereo not drawn) | -9%
COCCOC(=O)C1=C(N)OC2=C(C(=O)CC(C)(C)C2)C1c1cccnc1 (stereo not drawn) | 2%
CCOC(=O)c1c(C)n(C)c2ccc(OCC(O)CN3CCN(C)CC3)cc12 (stereo not drawn) | 43%

Among those listed so far, 8 contain fluorine.
SMILES | AmpC nodet inh
CCOC(=O)NC(Nc1ccc(S(N)(=O)=O)cc1)(C(=O)OCC)C(F)(F)F (stereo not drawn) | 4%
FC(F)(F)c1ccccc1-c1ccc2ncnc(NCc3cccnc3)c2c1 | 103%
Fc1ccc(CN2CCCCCCC2)c(F)c1 | -4%
O=C(Nc1ccccc1Cl)c1ccc2c(c1)N(Cc1ccc(F)cc1)C(=O)CS2=O (stereo not drawn) | 33%
CC1CCc2nn(CC(=O)NCc3ccc(F)cc3)cc2C1 (stereo not drawn) | 26%
O=P(OCC(F)(F)C(F)F)(N1CCOCC1)N1CCOCC1 | -6%
Cc1nnc(SCC(=O)Nc2cc(C(F)(F)F)ccc2N2CCOCC2)o1 | 34%
CCC(C)N(C(=O)c1csnn1)C(C(=O)NCc1ccc(F)cc1)c1ccco1 (stereo not drawn) | -9%

The list continues:
SMILES | AmpC nodet inh
CCC(=O)N1CCN(C(C)=O)C1c1ccccc1 (stereo not drawn) | -1%
O=C(CSc1oc(-c2ccco2)nc1S(=O)(=O)c1ccc(Cl)cc1)NCC1CCCO1 (stereo not drawn) | 42%
O=C(NO)C1CC2C=CC1C2 (stereo not drawn) | -2%
COC(=O)[C@H]1C[C@@H]1[C@H](NC(=O)c1cccnc1)c1ccccc1 | 17%
CC1=NC(C)Cc2ccccc21 (stereo not drawn) | -6%
COc1ccccc1CN1CCCC2(CCN(C(C)=O)CC2)C1 | 2%
[N-]=[N+]=CC(=O)CNC(=O)[C@@H](Cc1ccccc1)N1C(=O)c2ccccc2C1=O | 13%
Cc1ccc(N(C(=O)Cn2nnc(-c3ccc(C)o3)n2)C(C(=O)NC2CCCC2)c2ccco2)cc1 (stereo not drawn) | ?
CCCn1c(-c2ccc(F)cc2)nc2c(NCCN3CCSCC3)nc(C)nc21 | 92%
Cc1ccc(C(=O)c2coc3ccc(O)c(CN4CCN(C)CC4)c23)cc1 | 55%
N=C(c1ccc2ccccc2c1)c1ccccc1Cc1ccccc1 | -6%[5.75 µM]
COC(=O)c1ccc(C)cc1 | -1%

Brought forward from above: 6 compounds, followed by the next part.
SMILES | AmpC nodet inh
[N-]=[N+]=CC(=O)CNC(=O)[C@@H](Cc1ccccc1)N1C(=O)c2ccccc2C1=O | 13%
Cc1ccc(N(C(=O)Cn2nnc(-c3ccc(C)o3)n2)C(C(=O)NC2CCCC2)c2ccco2)cc1 (stereo not drawn) | ?
CCCn1c(-c2ccc(F)cc2)nc2c(NCCN3CCSCC3)nc(C)nc21 | 92%
Cc1ccc(C(=O)c2coc3ccc(O)c(CN4CCN(C)CC4)c23)cc1 | 55%
N=C(c1ccc2ccccc2c1)c1ccccc1Cc1ccccc1 | -6%[5.75 µM]
COC(=O)c1ccc(C)cc1 | -1%
CC1(C)[C@@H]2CC[C@@]1(CS(=O)(=O)Nc1ccccc1)C(=O)C2 | 4%[5.75 µM]
CCCS(=O)(=O)N1CCCC(C(=O)N2CCC(Cc3ccccc3)CC2)C1 (stereo not drawn) | 134%
Nc1nonc1-c1nc2ccccc2[nH]1 | 3%
COc1ccc(NC(=O)c2cc3ccccn3n2)cc1 | 3%
CN(C)CCCn1c2c3ccccc3ccc2c2oc(=O)c3ccccc3c21 | 24%[5.75 µM]
CS(=O)(=O)N1CCC2(CCCN(c3ccncc3)C2)CC1 | 9%
N#Cc1nc(-c2ccco2)oc1NCCN1CCOCC1 | -6%
COc1ccc(S(=O)(=O)CCC(=O)N2CC(=O)N(CCc3ccccc3)C(=O)C2)cc1 | 51%
